Source: PubChem BioAssay (Broad Institute)
A1 apoptosis 2 = compounds inhibiting A1, read as caspase activation; caspase activation, % (test concentration not listed); AID 2465; MEF A1-2A-BIM cells, caspase-Glo luminescence, 3 h; percent of clofoctol response, DMSO zero; 24,000 tested, under 10 active; in the data active = caspase activation above about 5.9%;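 also: wells of about 30 µL received 50 nL stock; the first replicate is given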
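Material: mouse embryonic fibroblasts co-expressing A1 and BIM (A1-2A-BIM), primed for A1 dependence / Quantity: 2500 cells/well / Buffer or medium: RPMI-1640 growth medium with 10% FBS / Doses: 50 nL compound per well, pinned / Schedule: 3 h compound exposure at 37 °C / Signal: Caspase-Glo luminescence (DEVD substrate) / Measure: Caspase-3/7 activation, seen as rise in luminescence signal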
An asterisk follows results filed as active. These rows are one share of the data, so the mix of outcomes need not match the whole.

canonical_smiles | A1 apoptosis 2
Cc1noc(C)c1S(=O)(=O)Nc1ccc2c(c1)CC(=O)N([C@H](C)CO)C[C@@H](C)[C@@H](CN(C)S(C)(=O)=O)O2 | 0.1
Cc1noc(C)c1S(=O)(=O)Nc1cccc2c1O[C@@H](CN(C)S(=O)(=O)c1cccs1)[C@@H](C)CN([C@H](C)CO)C2=O | -0.1
C[C@@H]1CCCCO[C@H](CN(C)S(=O)(=O)c2cn(C)cn2)[C@@H](C)CN([C@H](C)CO)C(=O)c2cc(NC(=O)Nc3cccc4ccccc34)ccc2O1 | 0.7
C[C@H]1CN([C@@H](C)CO)C(=O)c2cc(NS(=O)(=O)c3ccc(F)cc3)ccc2O[C@H]1CN(C)S(=O)(=O)c1ccc(Cl)cc1 | 0.5
C[C@H](CO)N1C[C@H](C)[C@H](CN(C)S(=O)(=O)c2ccc(F)cc2)Oc2ccc(NC(=O)Nc3ccccc3)cc2CC1=O | -0.5
C[C@H]1CN([C@@H](C)CO)C(=O)Cc2cc(NC(=O)CCCN(C)C)ccc2O[C@@H]1CN(C)S(C)(=O)=O | -1.5
C[C@H](CO)N1C[C@H](C)[C@@H](CN(C)S(=O)(=O)c2ccc(Cl)cc2)OCc2cn(nn2)CCCC1=O | 0.8
CC(C)NC(=O)Nc1cccc2c1O[C@@H](CN(C)Cc1ccncc1)[C@@H](C)CN([C@@H](C)CO)C2=O | 0.4
COc1ccc(S(=O)(=O)Nc2ccc3c(c2)C(=O)N([C@@H](C)CO)C[C@H](C)[C@H](CN(C)C(=O)Nc2c(C)noc2C)OCCCC[C@@H](C)O3)cc1 | 0.1
Cc1noc(C)c1S(=O)(=O)Nc1ccc2c(c1)CC(=O)N([C@@H](C)CO)C[C@H](C)[C@@H](CN(C)C)O2 | 0.0
C[C@@H]1CCCCO[C@H](CN(C)S(=O)(=O)c2ccc(F)cc2)[C@@H](C)CN([C@H](C)CO)C(=O)c2cc(NS(=O)(=O)c3ccc(F)cc3)ccc2O1 | 0.3
Cc1ccc(S(=O)(=O)N(C)C[C@H]2Oc3ccc(NC(=O)Cc4cn(C)c5ccccc45)cc3C(=O)N([C@@H](C)CO)C[C@@H]2C)cc1 | -0.6
C[C@H]1CCCCO[C@@H](CN(C)C(=O)C2CCCCC2)[C@@H](C)CN([C@@H](C)CO)C(=O)c2cc(NC(=O)Nc3ccc(C(F)(F)F)cc3)ccc2O1 | 1.0
C[C@@H]1CCCCO[C@@H](CN(C)C(=O)CCCN(C)C)[C@@H](C)CN([C@H](C)CO)C(=O)c2cc(NC(=O)Nc3ccc4c(c3)OCO4)ccc2O1 | -0.2
COc1ccc(NC(=O)Nc2ccc3c(c2)C(=O)N([C@@H](C)CO)C[C@@H](C)[C@@H](CN(C)Cc2ccncc2)OCCCC[C@H](C)O3)cc1 | -0.5
C[C@@H]1CN([C@@H](C)CO)C(=O)CCCn2nncc2CO[C@@H]1CN(C)C | -1.5
CNC[C@@H]1Oc2ccc(NC(=O)CCC(F)(F)F)cc2C(=O)N([C@H](C)CO)C[C@@H]1C | 0.7
C[C@H](CO)N1C[C@H](C)[C@H](CN(C)C)OCCCC[C@H](C)Oc2ccc(NS(=O)(=O)c3ccc(Cl)cc3)cc2C1=O | -0.1
C[C@H]1CN([C@@H](C)CO)C(=O)c2cccc(NC(=O)Nc3ccc4c(c3)OCO4)c2O[C@H]1CN(C)C | 0.4
COc1cc(/C=N/NC(=O)CCCCCCC(=O)Nc2ccccc2O)ccc1O | 1.6
C[C@@H]1CN([C@H](C)CO)C(=O)Cc2cc(NC(=O)Cc3cn(C)c4ccccc34)ccc2O[C@@H]1CN(C)Cc1ccc(Oc2ccccc2)cc1 | 1.3
C[C@@H]1CCCCO[C@H](CN(C)Cc2ccc(C(=O)O)cc2)[C@@H](C)CN([C@@H](C)CO)C(=O)c2cc(NC(=O)Nc3cccc4ccccc34)ccc2O1 | -0.1
Cc1ccc(S(=O)(=O)N(C)C[C@H]2Oc3ccc(NC(=O)NC4CCCCC4)cc3C(=O)N([C@H](C)CO)C[C@@H]2C)cc1 | -1.1
Cc1noc(C)c1NC(=O)N(C)C[C@@H]1Oc2ccc(NC(=O)c3ccncc3)cc2CC(=O)N([C@H](C)CO)C[C@H]1C | 1.4
Cc1ccc(S(=O)(=O)Nc2ccc3c(c2)C(=O)N([C@@H](C)CO)C[C@H](C)[C@H](CN(C)C(=O)CCC(F)(F)F)OCCCC[C@@H](C)O3)cc1 | -0.7
C[C@@H]1CCCCO[C@@H](CN(C)Cc2ccc(C(=O)O)cc2)[C@@H](C)CN([C@H](C)CO)C(=O)c2cc(NC(=O)c3ccncc3)ccc2O1 | 0.2
C[C@H]1C=C(C(=O)Nc2ccccc2)O[C@@H](OCc2ccc(CO)cc2)C1 | -0.9
COc1ccc(S(=O)(=O)Nc2ccc3c(c2)CC(=O)N([C@@H](C)CO)C[C@@H](C)[C@@H](CN(C)C(=O)Nc2ccc4c(c2)OCO4)O3)cc1 | 0.0
CC(C)NC(=O)N(C)C[C@H]1OCCCC[C@H](C)Oc2ccc(NC(=O)Nc3ccccc3)cc2C(=O)N([C@@H](C)CO)C[C@H]1C | -1.4
COc1ccc(Br)cc1/C=N/NC(=O)c1ccc(C(=O)NO)cc1 | 0.9
CNC[C@H]1OCCCC[C@@H](C)Oc2ccc(NS(=O)(=O)c3c(C)noc3C)cc2C(=O)N([C@H](C)CO)C[C@H]1C | 0.6
C[C@H]1CCCCO[C@H](CN(C)C(=O)NC2CCCCC2)[C@@H](C)CN([C@@H](C)CO)C(=O)c2cc(NC(=O)CCC(F)(F)F)ccc2O1 | 0.6
C[C@H](CO)N1C[C@H](C)[C@H](CN(C)C(=O)CCC(F)(F)F)OCCCC[C@H](C)Oc2ccc(NC(=O)Cc3ccccc3)cc2C1=O | -0.9
COc1ccc(S(=O)(=O)Nc2ccc3c(c2)C(=O)N([C@H](C)CO)C[C@@H](C)[C@H](CN(C)C(=O)Nc2ccc(C(F)(F)F)cc2)OCCCC[C@@H](C)O3)cc1 | -1.3
C[C@H](CO)N1C[C@H](C)[C@@H](CN(C)S(=O)(=O)c2cn(C)cn2)Oc2c(NS(=O)(=O)c3cn(C)cn3)cccc2C1=O | -0.2
C[C@@H]1CN([C@H](C)CO)C(=O)Cc2cc(NC(=O)Nc3cccc4ccccc34)ccc2O[C@@H]1CN(C)Cc1ccncc1 | -0.8
C[C@H](CO)N1C[C@H](C)[C@@H](CN(C)C(=O)Nc2ccc(F)cc2)Oc2c(NS(=O)(=O)c3cn(C)cn3)cccc2C1=O | 1.2
Cc1noc(C)c1NC(=O)Nc1ccc2c(c1)C(=O)N([C@@H](C)CO)C[C@@H](C)[C@H](CN(C)C(=O)Nc1c(C)noc1C)OCCCC[C@H](C)O2 | -1.5
C[C@@H]1CN([C@H](C)CO)C(=O)Cc2cc(NC(=O)Cn3cnnn3)ccc2O[C@@H]1CN(C)Cc1ccc(C(=O)Nc2ccccc2N)cc1 | -0.9
COc1ccc(S(=O)(=O)Nc2ccc3c(c2)C(=O)N([C@@H](C)CO)C[C@@H](C)[C@H](CN(C)S(=O)(=O)c2ccc(Cl)cc2)OCCCC[C@H](C)O3)cc1 | -0.7
COc1ccc(CN(C)C[C@@H]2Oc3ccc(NS(=O)(=O)c4ccc(C)cc4)cc3CC(=O)N([C@@H](C)CO)C[C@@H]2C)cc1 | 0.5
COc1ccc(S(=O)(=O)N(C)C[C@H]2OCCCC[C@@H](C)Oc3ccc(NC(=O)Nc4ccc5c(c4)OCO5)cc3C(=O)N([C@H](C)CO)C[C@@H]2C)cc1 | 0.0
C[C@H]1CN([C@@H](C)CO)C(=O)c2cccc(NC(=O)NC3CCCCC3)c2O[C@H]1CN(C)C(=O)Nc1ccc2c(c1)OCO2 | -0.7
Cc1ccc(S(=O)(=O)N(c2cccc(N=[N+]=[N-])c2)S(=O)(=O)c2ccc(C)cc2)cc1 | 0.0
CC(C)NC(=O)Nc1ccc2c(c1)C(=O)N([C@H](C)CO)C[C@@H](C)[C@H](CN(C)CC1CC1)OCCCC[C@@H](C)O2 | 0.6
Cc1ccc(S(=O)(=O)Nc2ccc3c(c2)C(=O)N([C@@H](C)CO)C[C@H](C)[C@H](CN(C)Cc2ccc(C(=O)Nc4ccccc4N)cc2)O3)cc1 | 0.2
C[C@@H]1CN([C@@H](C)CO)C(=O)Cc2cc(NS(=O)(=O)c3ccc(F)cc3)ccc2O[C@@H]1CN(C)C(=O)Nc1ccc(C(F)(F)F)cc1 | 0.9
C[C@H]1CN([C@@H](C)CO)C(=O)Cc2cc(NC(=O)Cc3ccccc3)ccc2O[C@H]1CN(C)S(=O)(=O)c1cccs1 | 1.3
COc1ccc(NC(=O)Nc2ccc3c(c2)C(=O)N([C@H](C)CO)C[C@H](C)[C@H](CN(C)C(=O)Nc2ccc(C(F)(F)F)cc2)OCCCC[C@@H](C)O3)cc1 | -0.5
C[C@@H]1CN([C@H](C)CO)C(=O)c2cc(NC(=O)NC3CCCCC3)ccc2O[C@H]1CN(C)Cc1ccc2c(c1)OCO2 | -1.1

C[C@H]1CN([C@@H](C)CO)C(=O)c2cc(NC(=O)Nc3ccc(F)cc3)ccc2O[C@H]1CN(C)Cc1ccncc1
  A1 apoptosis 2: -0.5

C[C@@H]1CN([C@@H](C)CO)C(=O)c2cc(NC(=O)CCCN(C)C)ccc2O[C@@H](C)CCCCO[C@@H]1CN(C)S(=O)(=O)c1cn(C)cn1
  A1 apoptosis 2: 1.7

CNC[C@H]1Oc2ccc(NS(=O)(=O)c3ccccc3)cc2C(=O)N([C@@H](C)CO)C[C@@H]1C
  A1 apoptosis 2: 0.4

COc1ccc(S(=O)(=O)Nc2cccc3c2O[C@H](CN(C)Cc2ccc(C(=O)O)cc2)[C@H](C)CN([C@@H](C)CO)C3=O)cc1
  A1 apoptosis 2: 0.1

C[C@@H]1CN([C@@H](C)CO)C(=O)Cc2cc(NC(=O)Nc3cccc4ccccc34)ccc2O[C@H]1CN(C)Cc1ccccc1
  A1 apoptosis 2: 0.8

COc1ccc(S(=O)(=O)Nc2cccc3c2O[C@@H](CN(C)C)[C@@H](C)CN([C@H](C)CO)C3=O)cc1
  A1 apoptosis 2: -0.5

C[C@H]1CN([C@@H](C)CO)C(=O)c2cccc(NS(=O)(=O)c3ccc(Cl)cc3)c2O[C@H]1CN(C)C
  A1 apoptosis 2: -0.9

C[C@H](CO)N1C[C@H](C)[C@H](CN(C)Cc2ccc(-c3ccccc3)cc2)Oc2ccc(NC(=O)CCC(F)(F)F)cc2CC1=O
  A1 apoptosis 2: 0.8

C[C@@H]1CN([C@H](C)CO)C(=O)c2cc(NC(=O)Nc3ccccc3)ccc2O[C@@H]1CN(C)Cc1ccncc1
  A1 apoptosis 2: -0.4

C[C@H]1CN([C@@H](C)CO)C(=O)Cc2cc(NC(=O)CCN3CCOCC3)ccc2O[C@H]1CN(C)C(=O)Nc1cccc2ccccc12
  A1 apoptosis 2: 0.6

Cc1noc(C)c1S(=O)(=O)Nc1ccc2c(c1)C(=O)N([C@H](C)CO)C[C@H](C)[C@H](CN(C)C(=O)Nc1ccccc1)O2
  A1 apoptosis 2: 0.1

C[C@@H]1CCCCO[C@H](CN(C)C(=O)c2ccccc2)[C@H](C)CN([C@@H](C)CO)C(=O)c2cc(NC(=O)c3ccccc3)ccc2O1
  A1 apoptosis 2: 0.2

C[C@H]1CCCCO[C@@H](CN(C)Cc2ccc3c(c2)OCO3)[C@@H](C)CN([C@@H](C)CO)C(=O)c2cc(NS(=O)(=O)c3ccccc3)ccc2O1
  A1 apoptosis 2: 1.5

COc1ccccc1CN(C)C[C@H]1OCc2cnnn2CCCC(=O)N([C@H](C)CO)C[C@H]1C
  A1 apoptosis 2: 0.6

C[C@@H]1CN([C@H](C)CO)C(=O)CCCn2nncc2CO[C@@H]1CN(C)C(=O)Nc1ccccc1C(F)(F)F
  A1 apoptosis 2: 0.3

C[C@@H]1CCCCO[C@H](CN(C)Cc2ccc(Cl)c(Cl)c2)[C@H](C)CN([C@@H](C)CO)C(=O)c2cc(NC(=O)NC3CCCCC3)ccc2O1
  A1 apoptosis 2: 0.0

C[C@@H]1CCCCO[C@H](CN(C)C)[C@H](C)CN([C@H](C)CO)C(=O)c2cc(NC(=O)C3CCCCC3)ccc2O1
  A1 apoptosis 2: 1.8

C[C@@H]1CN([C@@H](C)CO)C(=O)Cc2cc(NS(=O)(=O)c3ccc(Cl)cc3)ccc2O[C@H]1CN(C)Cc1ccc(Oc2ccccc2)cc1
  A1 apoptosis 2: 0.7

C[C@H](CO)N1C[C@H](C)[C@@H](CN(C)C(=O)Nc2ccc(C(F)(F)F)cc2)Oc2c(NC(=O)Nc3ccc(C(F)(F)F)cc3)cccc2C1=O
  A1 apoptosis 2: -0.6
